Source: PubChem BioAssay (National Center for Advancing Translational Sciences (NCATS))
PINK1 modulator = PINK1 expression modulation. PINK1 immunofluorescence, high-content cytometry, 24 h. Potency, µM (doses to about 76.6 µM), inactives show at the top dose activation (PINK1 increase), most hits filed as activators. hit rate 0.2% among 410,000. AID 624263; active = well fitted activation curve with a large enough effect; inconclusive = small, poorly fitted or top-dose-only effect; inactive = flat fitted curve, though single readings scatter; cell line not stated here;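 also: potency is read from the fitted curve at half-maximal effect; % of control where 0% means no effect; nearly all actives have a fitted effect of over 65% in size; a mitochondrial uncoupler was the plate control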
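Stable cell line treated 24 h with compounds at 5 concentrations (CCCP controls), then fixed and immunostained for PINK1 plus nuclear and cell stains; PINK1 immunofluorescence quantified by laser-scanning microplate cytometry.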
CtBP-E1A inh = CtBP/E1A binding inhibition. AlphaScreen GST-E1A/His-CtBP binding, 1536-well; hits give low values; control for the full effect not named in the record. activity change, % (no concentration beside the values). hit rate 0.49% among 340,000. AID 651724; in the data active means activity change below about -65%; inconclusive means about -30% to -65%; inactive means above about -30%; also: % is scaled to controls: 0 for no effect and ±100 for the full control effect; compound concentration not given in the record
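AlphaScreen with 125 nM GST-E1A and 125 nM His-CtBP (5X stocks) in Tris pH 8.0, 300 mM NaCl, BSA, Tween 20, TCEP. Compounds preincubated 2 h at 37 deg C, then glutathione donor/nickel acceptor beads added for 1 h at 37 deg C in dark.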
D2 potentiator = positive allosteric modulators of human D2 dopamine receptor; DiscoveRx D2 beta-arrestin cells, luminescence, 90 min; 100% = 57 uM dopamine signal; potentiation, % (concentration not given with the values); hit rate 0.23% among 360,000; AID 624464; active = potentiation of 50% or more; inconclusive = 30% to 50%; inactive = 30% or less;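 also: compound concentration not given in the record; tested on top of an EC20 dose of dopamine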
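PathHunter beta-arrestin assay in DiscoveRx D2 cells. Compounds were added with an EC20 of dopamine (50 nM final) for 90 min at 37 deg C. Luminescence was read 1 h after detection reagent, with 57 uM dopamine as the EC100 control.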
TRPV1 potentiator = enhances activation of the human vanilloid receptor TRPV1 | TRPV1-expressing cells, Fluo-8 calcium influx, capsaicin EC20 potentiation; host cell line not named in the record; control for the full effect not named in the record | potentiation, % at 8.33 µM | hit rate 0.02% among 320,000; active means potentiation above 80%; inconclusive means 30% to 80%; inactive means below 30%; also: 0% is about no effect
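TRPV1-expressing cells were cultured overnight at 35.5C and loaded with Fluo-8 calcium dye for 40 to 90 min at room temperature. After a 10 s baseline, compound was added and calcium influx was read kinetically for 3 min (ex 480/em 520 nm).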
Six1-Eya2 blk = Six1/Eya2 interaction inhibition | AID 651725 | Q15475+O00167 | activity change, % (test concentration not listed) | AlphaScreen GST-Six1/His-Eya2 binding, biochemical; hits give low values; control for the full effect not named in the record | hit rate 0.56% among 360,000; in the data active = activity change below about -65%; inconclusive = about -30% to -65%; inactive = above about -30%; also: % is scaled to controls: 0 for no effect and ±100 for the full control effect; compound concentration not given in the record
Target sequence (O00167 whole entry, looked up): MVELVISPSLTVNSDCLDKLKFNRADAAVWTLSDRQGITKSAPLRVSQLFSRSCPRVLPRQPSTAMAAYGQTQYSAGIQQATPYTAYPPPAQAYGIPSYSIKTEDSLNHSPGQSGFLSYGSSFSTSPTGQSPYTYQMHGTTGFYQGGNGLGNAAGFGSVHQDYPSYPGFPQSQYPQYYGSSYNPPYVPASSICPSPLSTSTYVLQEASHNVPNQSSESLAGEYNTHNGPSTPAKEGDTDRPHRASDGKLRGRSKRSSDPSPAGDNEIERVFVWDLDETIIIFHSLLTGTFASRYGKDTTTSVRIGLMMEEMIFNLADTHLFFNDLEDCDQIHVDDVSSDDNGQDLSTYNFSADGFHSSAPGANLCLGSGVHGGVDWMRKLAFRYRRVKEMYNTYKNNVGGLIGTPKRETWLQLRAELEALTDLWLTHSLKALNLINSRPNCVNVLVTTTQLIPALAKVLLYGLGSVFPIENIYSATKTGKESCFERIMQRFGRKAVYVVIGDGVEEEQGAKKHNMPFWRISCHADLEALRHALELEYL
Target sequence (Q15475 whole entry, looked up): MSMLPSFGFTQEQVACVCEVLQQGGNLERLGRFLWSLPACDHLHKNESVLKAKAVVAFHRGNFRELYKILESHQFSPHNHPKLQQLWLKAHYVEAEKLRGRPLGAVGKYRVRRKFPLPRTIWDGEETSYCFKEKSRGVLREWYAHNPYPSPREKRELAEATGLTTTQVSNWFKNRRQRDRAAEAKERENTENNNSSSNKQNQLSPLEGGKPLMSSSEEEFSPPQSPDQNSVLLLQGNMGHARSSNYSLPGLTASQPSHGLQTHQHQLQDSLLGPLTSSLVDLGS
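AlphaScreen with GST-Six1 and His-Eya2 (5X mix: 250 nM and 500 nM), glutathione donor and nickel acceptor beads; buffer 50 mM Tris pH 8.0, 300 mM NaCl, 1 mM TCEP; 1 h at 37 C in the dark.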
D2 agonist = activates the human D2 dopamine receptor; activation, % (test concentration not listed); P14416; DiscoveRx PathHunter D2 beta-arrestin, luminescence, 90 min; 100% = 57 uM dopamine signal; hit rate 0.084% among 360,000; in the data active = activation above about 40%; inconclusive = about 15% to 40%; inactive = below about 15%; also: compound concentration not given in the record; the text of the record calls up to 30% inactive
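Agonist mode: compounds alone added to overnight-plated D2 PathHunter cells for 90 min at 37 C, with 57 uM final dopamine (EC100) defining full response. Beta-arrestin recruitment detected by chemiluminescent reagent, read after 1 h at ambient temperature.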
Sfp inh = blocks B. subtilis Sfp PPTase activity; Q9F4F7; Biochemical Sfp PPTase activity, qHTS; Potency, µM, inactives show max response, negative = inhibition, usual class: inhibitors; hit rate 3.5% among 310,000; AID 1490; active = well fitted inhibition curve with a large enough effect; inconclusive = small, poorly fitted or top-dose-only effect, or another doubt; inactive = no such curve, though single readings can be large or run the other way;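 also: the enzyme is Sfp with the accession as filed and its product quenches rhodamine fluorescence; potency is read from the fitted curve at half-maximal effect; 0% = enzyme reaction without inhibitor and -100% = no enzyme wells; top concentration of the series not given in the record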
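Compounds were incubated with enzyme (final 15 nM) for 15 min at room temperature before substrate addition started the reaction. Fluorescence at 525 nm excitation, 598 nm emission was recorded immediately and after 30 minutes.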
The depositor's hits bear a star; ? = inconclusive; . = no result given; & = joins results of further samples; [ ] = dose if it differs, or a comment.

Compound | PINK1 modulator | CtBP-E1A inh | D2 potentiator | TRPV1 potentiator | Six1-Eya2 blk | D2 agonist | Sfp inh
Cc1ccc(-c2nc3ccccn3c2NCc2ccc3c(c2)OCO3)cc1 | 0.2% | -10 | ? | 19 | -13 | 1.5 | ?
COC(=O)c1cccc(C23CC4(C2)[C@H](CN(Cc2ccc(C(F)(F)F)cc2)[C@@H]4c2ccccc2)C3c2ccc(Cl)nc2)c1 (stereo not given in full) | 1.8% | -20 | -5 | -9 | -5 | 1.7 | 18%&0%
Cn1cnnc1SCCn1c(N2CCCCC2)nc2c1c(=O)[nH]c(=O)n2C | -0.3% | 8 | -5 | 1 | 19 | 0.0 | 21%
O=C1OC[C@@H]2CCCN2C(=O)[C@@H](CC(=O)N(CCO)Cc2ccccc2)C/C=C\C[C@@H]1Cc1ccc(F)cc1 | -0.3% | -2 | -2 | . | -7 | 1.7 | .
Cc1ccc(C(=O)O)cc1NC(=S)NC(=O)C(c1ccccc1)c1ccccc1 | -2.2% | -13 | 10 | -17 | -10 | -0.1 | 3%
CCOC(=O)N1CCN(C(=O)c2ccc(-n3c(=S)[nH]c4ccccc4c3=O)cc2)CC1 | ? | 1 | -7 | -9 | 3 | 3.9 | -13%
Cc1nn(Cc2ccccc2)c2c1C(c1ccccc1)C(C#N)=C(N)O2 (stereo not given) | -0.4% | -2 | -13 | ? | -1 | -5.9 | 5%
O=[N+]([O-])c1nn(-c2ccc(Cl)cc2)n(O)c1=NCc1ccccc1Cl | 0.7% | -22 | 6 | 9 | -8 | 0.1 | 12%
CC1(C)C2CCC1(C)C(SC(=N)N)C2 (stereo not given) | -0.4% | -1 | -1 | . | 1 | -0.7 | .
O=C(CSc1nnc(NC(=O)C2CC(=O)N(c3ccccc3)C2)s1)NCc1ccco1 (stereo not given) | -0.6% | -8 | -9 | 3 | -5 | -4.3 | -21%
CCC(C)C(NS(=O)(=O)c1ccc(C)cc1)C(=O)N1CCOCCOCCOCC1 (stereo not given) | 3.2% | 11 | -5 | -1 | 2 | 4.0 | 10%
Cc1cccc(OCC(=O)Nc2ccc3c(c2)nc(CCN2CCN(C)CC2)n3C)c1 | -1.7% | 0 | 10 | -4 | -2 | 1.5 | -8%
O=C(O)c1cc(-c2ccccc2)nn1CC1CC(c2cccc([N+](=O)[O-])c2)=NO1 (stereo not given) | 1.6% | 3 | 2 | . | 1 | 3.2 | .
Cc1c(NC(=O)c2cc3ccccc3o2)c(=O)n(-c2ccccc2)n1C | -0.7% | -13 | -4 | 5 | 3 | 0.5 | -10%
O=C(CC1C(=O)NCCN1Cc1ccc(-c2ccccc2)cc1)NCC1CCOCC1 (stereo not given) | -0.6% | 2 | -6 | -8 | -7 | 5.6 | 12%
Nn1c(COc2cccc(Br)c2)nnc1SCC(=O)N1CCc2ccccc2C1 | -0.3% | 2 | -7 | -5 | 0 | -0.3 | 0%
CCN(CC(O)Cn1c2ccccc2c2ccccc21)S(=O)(=O)c1ccc(F)cc1 (stereo not given) | 2.8%[38.3 µM] | 5 | -1 | 3 | 2 | 5.0 | 22%
Cc1ccc(C)c(Cn2nnc3c(=O)[nH]c(C4CCCN(C(=O)c5ccco5)C4)nc32)c1 (stereo not given) | -3.2% | 2 | -3 | 5 | -5 | 2.2 | -6%
CCn1c(SCc2ccc(Cl)cc2Cl)nc2nc3c(cc2c1=O)CCCC3 | ? | 6 | -2 | -4 | 2 | 1.7 | 16%
O=C(O)C1C2CCC(O2)C1C(=O)Nc1ccc(F)c(Cl)c1 (stereo not given) | 7.1% | . | 14 | 15 | 0 | 2.8 | 5%

New compounds follow
Compound | PINK1 modulator | CtBP-E1A inh | D2 potentiator | TRPV1 potentiator | Six1-Eya2 blk | D2 agonist | Sfp inh
CC(=O)NCCc1ccc(C(=O)COC(=O)c2ccc(C)s2)cc1 | -0.3% | -22 | -5 | . | 1 | -1.7 | .
Cc1sc2ncnc(N3CCC(C(=O)NNC(=O)COc4ccc(Cl)cc4)CC3)c2c1C | -0.1% | . | 7 | . | -21 | 6.7 | .
O=C(CNS(=O)(=O)c1ccc(Br)s1)NCCc1ccc(Cl)cc1 | 0.1% | 6 | -9 | -4 | 5 | -4.2 | 11%
CCOC(=O)C1CCN(C(=O)CN2C(=O)NC3(CCCCC3)C2=O)CC1 | -0.6% | 9 | -6 | 5 | -1 | -6.6 | .
O=C(O)C1=C[C@H](c2ccc(Br)cc2)C[C@H](OCCCCO)O1 | 0.9% | -3 | -12 | ? | -2 | 0.5 | 3%
Cc1ccsc1CN(C(=O)c1ccccc1)C1CCS(=O)(=O)C1 (stereo not given) | 0.3% | 7 | 5 | -12 | -1 | -1.5 | 11%
Brc1ccc2nc(-c3ccccc3)c(Cc3ccccc3)n2c1 | 0.5% | 2 | -13 | . | 0 | -6.7 | .
CCN(C(=O)C(C)OC(=O)CCCNC(=O)c1ccc(Cl)cc1)c1ccccc1 (stereo not given) | 0.3% | 0 | -5 | -18 | -5 | -2.8 | .
COC(=O)CN(c1ccc(C)cc1)S(=O)(=O)c1ccc(F)cc1 | 1.1% | 6 | -2 | -26 | 7 | -0.3 | 18%
CSCC[C@H](NC(=O)OC(C)(C)C)c1nnc(SCC(=O)N(C)C)o1 | 1.5% | 0 | 14 | 16 | 3 | -1.2 | 13%
CCCCN1CC(C(=O)NCc2ccc(C)cc2)CC1=O (stereo not given) | 1.9% | 23 | 0 | 14 | 13 | -4.2 | 11%
CC(C)(C)NC(=O)CCN(/N=C/c1ccccc1)C1=NS(=O)(=O)c2ccccc21 | 3.4% | -65* | 2 | -17 | ? | -0.6 | -8%
CCN(CC(=O)Nc1c(F)cccc1F)C(=O)C1CCN(S(=O)(=O)c2ccc(F)cc2)CC1 | 1.2% | 0 | 3 | 13 | -2 | -3.3 | .
CC(=O)c1cccc(NC(=O)NC2CCCCC2)c1 | 0.9%[38.3 µM] | -2 | -13 | -21 | -1 | -4.5 | 5%
COCCNc1nc(N)c([N+](=O)[O-])c(NCC2CCCO2)n1 (stereo not given) | 2.4% | -20 | -4 | -7 | -11 | -16 | -15%
CS(=O)(=O)c1cccc(-c2ccc3nncn3c2)c1 | 0.3% | -21 | 0 | . | 9 | 2.4 | .
CCCCN(CC)C(=O)Cc1ccc(Br)cc1 | 1.5% | 6 | -8 | 2 | 17 | -2.1 | 3%
COc1ccccc1NC(=O)NNC(=O)c1ccncc1 | 1.4% | 4 | -6 | . | -1 | 0.5 | .
Cc1ncc(CO)c(CNc2ccc(Oc3ccccc3)cc2)c1O | 2.3% | -12 | -11 | 3 | -17 | 6.1 | 7%
Cc1nn(-c2nnc(C)c(=O)[nH]2)c(C)c1SCC(=O)Nc1ccc(F)cc1 | 0.9% | -24 | 5 | -18 | -25 | -1.7 | 32µM*

Limited to D2 agonist and Six1-Eya2 blk, for some of the entries so far:
SMILES | D2 agonist | Six1-Eya2 blk
COC(=O)CN(c1ccc(C)cc1)S(=O)(=O)c1ccc(F)cc1 | -0.3 | 7
CSCC[C@H](NC(=O)OC(C)(C)C)c1nnc(SCC(=O)N(C)C)o1 | -1.2 | 3

Further compounds follow:
Compound | PINK1 modulator | CtBP-E1A inh | D2 potentiator | TRPV1 potentiator | Six1-Eya2 blk | D2 agonist | Sfp inh
COc1ccc2cc(CCNC(=O)c3ccc(S(=O)(=O)N4CCCC4)cc3)c(=O)[nH]c2c1 | ? | 7 | 9 | -1 | 0 | -3.2 | 12%
CCCCC1(C)OC(=O)C(=Cc2ccc(N(CC)CC)cc2)C(=O)O1 (stereo not given) | 1.6% | -3 | 8 | -1 | 16 | -1.7 | -7%
Cc1ccc(-n2c(SCc3ccc(C#N)cc3)nnc2-c2ccccn2)cc1 | -1.8% | -18 | 0 | -18 | -14 | -1.4 | 14%
CC1(CCC(=O)N2CCCC(Nc3ccc(F)cc3)C2)CC1 (stereo not given) | -0.4% | -12 | -6 | -21 | -1 | -1.8 | -1%
CCN(CC)S(=O)(=O)c1ccc(O)c(C(=O)OCC(=O)NC2CCCC2)c1 | 2.6% | 7 | -3 | -26 | 2 | 3.1 | 15%
Cc1cccc(C(=O)OCC(=O)Nc2ccc(F)cc2)c1 | 0.7% | 1 | -3 | -10 | 6 | -5.1 | -7%
CCCN1CCc2c(sc(NC(=O)c3ccc(S(=O)(=O)N(C)c4ccccc4)cc3)c2C(=O)NC)C1 | 3.9% | -2 | 0 | 8 | 0 | -6.2 | -24%
O=C(COC(=O)/C=C/c1ccc(C(F)(F)F)cc1)NC1CCS(=O)(=O)C1 (stereo not given) | 6.8% | -14 | -3 | 15 | -2 | -1.0 | .
O=C(Nc1c(-c2ccccc2)nc2ccccn12)c1cccc(F)c1 | 1.3% | -12 | -6 | 7 | 5 | -9.3 | 7%
Cc1nc2ncnn2c(C)c1Cc1ccccc1Cl | 0.6% | -2 | -3 | 3 | -5 | 1.8 | 10%
COc1ccc(NC(=O)N2CCCC(CCC(=O)N(C)CCc3ccccn3)C2)cc1 (stereo not given) | -0.2% | 7 | -5 | -7 | -4 | 1.8 | 17%
COc1ccc(NC(=O)Cn2c([N+](=O)[O-])cnc2C)cc1Cl | 2.4% | -13 | -7 | 2 | -14 | -2.4 | 26%
CCc1nnc(NS(=O)(=O)c2ccc(NC(=S)NC(=O)c3ccc(OC)c(OC)c3)cc2)s1 | 1.2% | . | -3 | ? | 7 | -3.8 | -27%
COC(=O)C1=NN(C(=O)c2ccccc2)C(O)(c2ccc([N+](=O)[O-])cc2)C1 (stereo not given) | 1.9% | 8 | 4 | -5 | -20 | 4.1 | 16%
COc1ccc(S(=O)(=O)NC(C)C(=O)Nc2ccccc2C(F)(F)F)cc1 (stereo not given) | 4.8%[38.3 µM] | 2 | -1 | -9 | 1 | -2.2 | -6%
Cn1c(=O)n(C)c2cc(NS(=O)(=O)c3ccc(Br)s3)ccc21 | 6.2% | -4 | 6 | 3 | 1 | 4.9 | 10%
COCC(=O)N(CCc1ccc(OC)cc1)Cc1nc2ccccc2c(=O)[nH]1 | -0.9% | 5 | -4 | 28 | 0 | -1.6 | 9%
COc1ccc(C(O)c2ncc(-c3cccc(C(F)(F)F)c3)[nH]2)cc1F (stereo not given) | 3.3% | -13 | -1 | . | -22 | -1.9 | .
